Screening results: PubChem BioAssay, National Center for Advancing Translational Sciences (NCATS)
HPGD inh: HPGD (human) dehydrogenase inhibition; purified HPGD, NADH fluorescence kinetic, PGE2 substrate; Potency, µM, inactives show at the top dose activity change, negative = inhibition, hits mostly inhibitors; actives 4.3% (n = 150,000); AID 894; active = well fitted inhibition curve with a large enough effect (not every such curve was filed as active); inconclusive = small, poorly fitted or top-dose-only effect, or another doubt; inactive = no such curve, though single readings can be large or run the other way;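 further: top concentration of the series not given in the record; plate controls included wells without enzyme; inactives centre near -10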
Target sequence (P15428 whole entry, looked up): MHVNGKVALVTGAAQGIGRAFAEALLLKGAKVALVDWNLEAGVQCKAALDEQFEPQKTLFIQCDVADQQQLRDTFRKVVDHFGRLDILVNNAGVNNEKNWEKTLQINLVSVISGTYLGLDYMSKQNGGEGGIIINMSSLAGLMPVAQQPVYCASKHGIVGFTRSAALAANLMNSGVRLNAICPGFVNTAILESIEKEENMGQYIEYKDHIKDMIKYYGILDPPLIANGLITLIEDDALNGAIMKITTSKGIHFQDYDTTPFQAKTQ
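20 nM HPGD preincubated 15 min at room temperature with compound in 50 mM Tris-HCl pH 8, 0.01% Tween 20. Started with 1 mM NAD+ and 30 uM prostaglandin E2; NADH fluorescence (360/450 nm) read 5 times over 30-s intervals, last minus first.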
* hit, by the source's call; ? = inconclusive. On the % scale 0 is the no-effect control and ±100 the full control effect; potency means the concentration at half of the fitted maximal effect. Only part of the results is shown. The share of hits here may be higher or lower than overall.

smiles | HPGD inh
CCOC(=O)c1c(-c2ccccc2)csc1NC(=O)CSc1nc(C)cc(C)n1 | -11.4%
C[C@H](CCC(=O)O)[C@H]1CC[C@H]2[C@@H]3C(=O)C[C@@H]4CC(=O)CC[C@]4(C)[C@H]3CC(=O)[C@]12C | -11.3%
O=C(NCCN1CCOCC1)C1CCN(c2nc3ccccc3o2)CC1 | -10.1%
COCCOC(=O)C1=C(C)NC(=O)NC1c1ccc(Cl)cc1 (stereo unspecified) | -5.7%
COc1ccc(C(C(=O)NC2CCCCC2)N(Cc2cccs2)C(=O)Cc2c[nH]c3ccccc23)cc1OC (stereo unspecified) | -4.4%
Cn1c(=O)cc(SCC(=O)N2CCCC2)c2ccc(Cl)cc21 | 14.1µM*
O=C(O)C1CCN(S(=O)(=O)N2CCOCC2)CC1 | -4.1%
Cc1noc(C)c1C(=O)N1CCC[C@@]2(CCN(C(=O)Nc3cccc(F)c3)C2)C1 | -7.7%
Cc1ccc(S(=O)(=O)NCC(=O)OCC(=O)c2cc(C)n(-c3ccccc3)c2C)cc1 | -16.0%
COC(=O)c1ccc2[nH]c(C)cc(=O)c2c1 | ?
COc1ccc2c(Cl)c(C(=O)NC3CCS(=O)(=O)C3)sc2c1 (stereo unspecified) | -24.2%
O=S(=O)(Nc1nccs1)c1ccc(Cl)cc1 | 0.9%
COc1ccc(C(C(=O)NC2CCCCC2)N(C(=O)CCCC(=O)Nc2ccccn2)c2ccc3c(c2)OCCO3)cc1 (stereo unspecified) | -11.8%
CC(C)Nc1cc(N2CCCC2)ccc1[N+](=O)[O-] | -14.0%
O=C(O)CC1S/C(=N/N=C/C=C/c2ccccc2)NC1=O (stereo unspecified) | -19.4%
CC(=O)NCCc1nc2ccccc2n1Cc1ccc(C)cc1 | -4.6%
COc1ccccc1CNC(=O)c1ccccc1N | ?
Cc1cccc(C)c1NC(=O)CS(=O)CC(=O)Nc1ccc(F)cc1F (stereo unspecified) | -5.9%
COc1ccc(OC)c(CCNC(=O)CC2Oc3ccc(C)cc3NC2=O)c1 (stereo unspecified) | -7.5%
O=C1Nc2ccccc2C(=O)N2CCC[C@@H]12 | -2.7%
CCOc1ccccc1N(CC(=O)OC)S(=O)(=O)c1ccccc1 | -5.7%
C=CCC(C)(O)c1ccc(OC)cc1 (stereo unspecified) | -8.9%
O=C(NC1CCCCC1)c1cc2nc3c(c(C(F)(F)F)n2n1)CCCC3 | 28.2µM*
CCCOc1ccc(C(=O)NC(=S)Nc2nc(C)c(C(=O)N(C)C)s2)cc1 | -7.6%
CCCC1C2C(=O)N(c3ccccc3OCC)C(=O)C2ON1c1ccccc1 (stereo unspecified) | -10.4%

Next section, overlapping the part above by 2 compounds.
smiles | HPGD inh
CCCOc1ccc(C(=O)NC(=S)Nc2nc(C)c(C(=O)N(C)C)s2)cc1 | -7.6%
CCCC1C2C(=O)N(c3ccccc3OCC)C(=O)C2ON1c1ccccc1 (stereo unspecified) | -10.4%
O=C1CC(N2CCN(c3nc4ccccc4s3)CC2)C(=O)N1c1cccc(F)c1 (stereo unspecified) | -22.8%
COC(=O)N1CCC2(CC1)CCN(c1ccccc1)CC2 | -2.2%
COc1ccc(-c2cc(C(F)(F)F)nc(-n3cncn3)n2)cc1 | ?
O=C(NCc1ccccn1)c1n[nH]c2ccccc12 | -9.4%
Cc1ccc(C)c(N(CC(=O)NC2CCCC2)C(=O)c2oc(C(C)(C)C)cc2C)c1 | -19.6%
COc1ccc(C(=O)Cn2nnc(-c3ccccc3NC(=O)C3CCCCC3)n2)cc1 | -13.2%
O=C(O)CC(C(=O)O)n1nc(-c2ccccc2)cc1-c1ccccc1 (stereo unspecified) | 0.4%
N#Cc1c(NC(=S)NC(=O)Cc2cccs2)sc2c1CCCCC2 | -26.6%
O=c1nc(-c2ccccc2)cc(C(F)(F)F)[nH]1 | ?
N#C/C(=C\c1c[nH]c2ccccc12)c1nnc2n1CCCCC2 | 12.6µM*
COc1ccc(/C=C2\CCC(C3CCCC3)C2=O)cc1Cn1nc(C)cc1C (stereo unspecified) | -8.3%
COC(=O)c1cn(NC(=O)c2cccnc2)c(=O)c2ccccc12 | -11.7%
Cc1nn(C)cc1/C=C(/C#N)C(N)=O | -6.6%
CCC(C)NCC(O)COCc1ccc(Cl)cc1 (stereo unspecified) | ?
CC1CCN(C(=O)Cn2cc(C(=O)c3ccco3)c3ccccc32)CC1 | -15.6%
CNS(=O)(=O)c1ccccc1C(=N)c1ccccc1 | -5.9%
Cc1ncsc1CCOC(=O)c1ccc([N+](=O)[O-])cc1 | -16.9%
O=C(CNc1cccc2ccccc12)N/N=C/c1ccc([N+](=O)[O-])cc1 | 5.5%
COc1cccc(NC(=S)NCc2ccncc2)c1 | -11.8%
Cc1ccc(/C(N)=N/OC(=O)CCC2CCCCC2)cc1 | -12.1%
CC(C)(C)C1CCC2(CC1)C(Nc1cccc(C(F)(F)F)c1)=NC(=S)N2CC#N (stereo unspecified) | -12.8%
COc1ccc(CN2CCC(C(=O)N3CCN(c4ccccc4F)CC3)CC2)cc1OC | -4.5%
COc1cc(/C=N/Nc2ncnc3sc4c(c23)CCC4)ccc1O | -20.8%
Cc1cccc(C(=O)OCC(=O)Nc2nccs2)c1 | -21.3%
CNC(=O)[C@H]1O[C@@H](n2cnc3c(NCc4cccc(I)c4)ncnc32)[C@H](O)[C@H]1O | -7.9%

smiles | HPGD inh
Cc1nn(C)cc1C(=O)Nc1c(C)nn(Cc2ccccc2Cl)c1C | -4.7%
Cc1cc(C)nc(NC2=NCC(=O)N2c2cccc(Cl)c2)n1 | -6.5%
COC(=O)c1cc(OC)c(OC)cc1NC(=O)Cn1nnc(-c2ccccc2Cl)n1 | -11.0%
Cc1c(NC(=O)C(C)Sc2n[nH]c(N)n2)c(=O)n(-c2ccccc2)n1C (stereo unspecified) | -7.4%
Cc1nc2ccccc2c(=O)n1NC(=O)c1ccccc1Cl | -5.2%
CCCN1CCC(=NNC(=O)CSc2cc(C)c(Br)cc2C)CC1 | 14.1µM*
COc1ccc(N(C)C(=O)c2cc3c(Cl)nc4ccccc4c3s2)cc1 | 15.8µM*
Cc1ccc(-c2ccc(/C=N\NC(=O)c3cc4c(ccc5ccccc54)o3)o2)cc1[N+](=O)[O-] | ?
O=C(c1cccs1)N1CCN(Cc2ccccc2)CC1 | 0.6%
O=C(CC1SCCNC1=O)Nc1cccc(Cl)c1 (stereo unspecified) | 9.9%
Cc1c(O)cc2n(c1=O)-c1ccccc1C2(C)C | 0.1%
NC(=O)c1cc(S(=O)(=O)NC2CCCCC2)co1 | -0.2%
O=C(OCC#CCSc1nnc(-c2cccc3ccccc23)o1)c1cccs1 | ?
O=C(CN1C(=O)C2CC=CCC2C1=O)NCC1COc2ccccc2O1 (stereo unspecified) | -12.7%
CCn1cc(/C=N\NC(=O)c2ccc(F)cc2)cn1 | -3.8%
Cc1ccc2cc(C#N)c(N3CCN(C)CC3)nc2c1 | -13.2%
Cc1ccnc(NC2OC(=O)c3ccccc32)c1 (stereo unspecified) | -21.4%
Cc1ccccc1CNC(=O)/C=C\C(=O)O | 3.4%
Cc1ccc(CCNC(=O)C2CCCN(S(=O)(=O)c3c(C)nn(C)c3C)C2)cc1 (stereo unspecified) | -1.9%
CN=C1C([N+](=O)[O-])=CC=C2C1=NC1(CCCCC1)N2O | -23.6%
COCCn1c(=O)c(-c2ccc(OC)cc2)nc2cnc(Oc3ccc(OC)cc3)nc21 | -9.1%
O=C(CN1C(=O)C2(OCCCO2)c2ccccc21)NCc1ccccc1 | 0.5%
Cc1cc(F)c(F)c(C(=O)N2CCOCC2)c1 | -9.1%
COc1ccc(NCc2nnc(SCC(=O)c3ccc(OC)cc3)n2C)cc1 | -20.6%
Cc1ccc(Nc2nc(N)nc(CC#N)n2)cc1 | -1.3%

smiles | HPGD inh
O=C(NC1CCC(O)CC1)c1ccc(S(=O)(=O)NCc2ccco2)cc1 (stereo unspecified) | -10.7%
O=C(CCn1cnc(-c2ccccc2)c1-c1ccccc1)N/N=C/c1ccccc1O | -8.4%
CC(C)(C)C(=O)COC(=O)c1cc2ccccc2cc1O | -15.0%
Cc1sc2ncnc(N/N=C/c3ccc(O)cc3)c2c1C | -17.1%
O=C(CN(C1CCCCC1)C1CCCCC1)N1CCc2ccccc2C1 | 1.9%
COc1cc(C2C(C#N)=C(N)Oc3cc(N)ccc32)cc(OC)c1OC (stereo unspecified) | -17.3%
O=C1OC(Nc2ccc(Cl)cn2)c2ccccc21 (stereo unspecified) | -1.9%
O=C(COC(=O)C1=Cc2ccccc2OC1)NC1CCCC1 | -23.4%
Cc1cc(/C=C2/NC(=O)N(c3ccccc3)C2=O)c(C)n1C(C)C | -7.0%
COc1ccc(CCNC(=O)CSCc2n[nH]c(=O)[nH]2)cc1OC | 1.8%
COc1cccc(N=Nc2c(=O)[nH]n3c(=O)c4c([nH]c23)CCC4)c1 | 14.1µM*
CN1CCN(C(=O)c2cn(C)c3ccc(S(=O)(=O)N(C)C4CCCCC4)cc3c2=O)CC1 | -5.2%
CCOc1nc(-c2ccccc2)ccc1-c1noc(-c2ccncc2)n1 | ?
CCS(=O)(=O)c1nc(S(=O)(=O)c2ccc(Cl)cc2)c(N2CCc3ccccc3C2)s1 | -7.9%
O=C(Nc1ccc2c(c1)OCO2)c1cc2nc(C3CC3)cc(C(F)(F)F)n2n1 | -12.9%
O=C(NCCC(c1ccccc1)c1ccccc1)c1cccs1 | -14.9%
Cc1ccc(-c2nnn(CC(=O)N(c3ccccc3F)C(CC(C)C)C(=O)NCC3CCCO3)n2)cc1 (stereo unspecified) | -14.2%
Cc1cc(=O)[nH]c(Nc2ccc(C(=O)OC(C)C)cc2)n1 | -9.0%
CCOC(=O)CCCNC(=O)COC(=O)c1ccc(O)cc1 | -8.8%
O=C(Nc1ccc(F)cc1)c1sc(Cl)nc1-c1ccccc1 | -9.8%
COc1ccc(/C=C/C(=O)NC2CCCCCCC2)cc1S(=O)(=O)N1CCOCC1 | 1.8%
CC(=O)Nc1ccc(NC(=O)c2ccccc2F)cc1 | -9.4%
C=CCn1c(SCc2ccccc2)nnc1-c1cccnc1 | -29.1%
Cc1ccc(C)c(NS(=O)(=O)c2ccc(NC(=O)c3ccco3)cc2)c1 | -7.0%
N[C@@H](Cc1ccc(F)cc1)C(=O)O | 5.9%

Grouped by structure: the entries above with a tert-butyl group (three)
smiles | HPGD inh
Cc1ccc(C)c(N(CC(=O)NC2CCCC2)C(=O)c2oc(C(C)(C)C)cc2C)c1 | -19.6%
CC(C)(C)C1CCC2(CC1)C(Nc1cccc(C(F)(F)F)c1)=NC(=S)N2CC#N (stereo unspecified) | -12.8%
CC(C)(C)C(=O)COC(=O)c1cc2ccccc2cc1O | -15.0%

The list goes on.
smiles | HPGD inh
COC(=O)c1ccc(NC(=O)NC2CCCCC2)cc1 | -7.9%
O=C(NC(Cc1c[nH]c2ccccc12)C(=O)O)c1ccco1 (stereo unspecified) | -6.5%
COc1ccc(S(=O)(=O)N(C)c2ccc(C(=O)NCCC(C)C)cc2)cc1 | 2µM*
O=c1cc(CSc2nnc(-c3ccco3)o2)c2ccccc2[nH]1 | 20µM*
Cc1cc(NC(=O)C(C)C)ncc1NC(=O)CCc1ccccc1 | 4.9%
O=C(Cn1cc[n+](CC(=O)c2ccccc2)c1)c1ccccc1 | 0.0%
CCCCOC(=O)n1c(=S)oc2cc(Cl)ccc21 | -21.8%
COc1cccc(-n2ccnc2SCC(=O)Nc2nccs2)c1 | -6.6%
CCOC(=O)c1sc(NC(=O)CCN2C(=O)c3ccccc3C2=O)c(C(=O)OCC)c1C | -5.4%
COc1ccccc1N(CC(O)Cn1c(C)nc2ccccc21)S(=O)(=O)c1ccccc1 (stereo unspecified) | -15.6%
CN1CCN(C(=S)Nc2ccc([N+](=O)[O-])cc2)CC1 | -9.7%
CCOc1cc(S(=O)(=O)N2CCCCC2)ccc1F | -12.8%
COc1ccc(NC(=O)C2C3C=CC(C3)C2C(=O)NCc2ccccn2)c(OC)c1 (stereo unspecified) | -4.6%
O=C(c1cc2c(s1)-c1ccccc1OC2)N1CCN(c2ccccc2)CC1 | ?
O=C(O)C1C2CCC(C2)C1C(=O)NCCC1=CCCCC1 (stereo unspecified) | -4.7%
COc1ccc(NC(=O)C(NC(=O)OC(C)(C)C)C(C)OCc2ccccc2)cc1 (stereo unspecified) | -3.7%
C/C(=N\OC(=O)c1ccccc1F)c1nccs1 | -11.4%
CC(=O)N1CCC[C@@]2(CCN(Cc3ccccc3)C2)C1 | -6.3%
Cc1ccc(-n2ncc3c(=O)[nH]c(SCC(=O)N4CCC(C)CC4)nc32)cc1C | -13.6%
Cn1cnc([N+](=O)[O-])c1SCC(=O)O | -5.2%
O=C(COC(=O)C1(c2ccccc2F)CCCC1)Nc1ncc(C(F)(F)F)cc1Cl | -8.5%
CC(OC(=O)c1c2c(nc3ccccc13)/C(=C\c1ccc3c(c1)OCO3)CCC2)C(=O)Nc1ccc(S(N)(=O)=O)cc1 (stereo unspecified) | ?
O=C1CSC(c2ccc(Cl)cc2)N1C1CCCCC1 (stereo unspecified) | -1.1%
CCC1SC(CC)C(=O)N(CC(=O)Nc2ccc3c(c2)OCO3)C1=O (stereo unspecified) | -7.8%
COC(=O)Cc1ccc(NC(=S)NN2CCOCC2)cc1 | -4.3%
CC(C)c1ccccc1NC(=O)COC(=O)/C=C/c1cccc([N+](=O)[O-])c1 | -5.2%
COc1ccc(Oc2ncc3nc(-c4ccccc4)c(=O)n(CCC#N)c3n2)cc1 | -21.9%
O=C(N/N=C/C=C/c1ccccc1[N+](=O)[O-])c1cc(-c2cccnc2)nc2ccccc12 | -5.2%
